Source: PubChem BioAssay
HNF4A DNA FP = change in binding of human HNF4 alpha to DNA; P41235; HNF4a-FITC DNA binding, fluorescence polarization, 1 h; activity change, % at 10 µM; 360,000 tested, 0.3% active; in the data active = activity change above about 30%, passing the limit was not always enough;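 also: controls were the assay level and a saturating level of protein; the project sought stronger binding though the title names inhibitors; some compounds called inactive have numbers as strong as hits; positive values seem to mean higher polarization but the record does not say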
ALR H2O2 inh = inhibitors of human sulfhydryl oxidase ALR; P55789; purified ALR, DTT oxidation, H2O2 HRP-luminol luminescence; inhibition, % (test concentration not listed); 290,000 tested, 3.8% active; AID 485317;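 active = mean and each replicate at 75% or more; inconclusive = only one of the two met; inactive = neither met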;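 also: stock transfer was 7.5 nL into about 7.5 µL; 0% = neutral wells and 100% = wells with inactivated enzyme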
B2AR ag = agonists of human beta-2 adrenergic receptor inducing internalization; P07550; Am2.2-beta2AR cells, FAP receptor internalization, flow cytometry; reference of the scale not given here; 340,000 tested, 0.43% active; AID 504454; response, % (test concentration not listed);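 active = response above a set limit, near 3 SD of response in nonfluorescent compounds, cut at about 42% in these data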;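 also: stock transfer was 100 nL into about 11 µL; a reference agonist was the positive control; negative values mostly stem from fluorescent compounds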
RanGTP-Impb inh = disruptors of Ran-importin-beta complex formation – biochemical, FRET, CFP-Ran, YFP-importin-beta, homogeneous, primary screen | cell-free CFP-Ran/YFP-importin-beta FRET ratio | 300,000 tested, 1.1% active | inhibition, % (test concentration not listed);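 active = most replicates above 15%; inconclusive = exactly half above 15%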;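 also: 0% = DMSO wells and 100% = Ran loaded with GDP instead of GTP; wells of about 40 µL received 100 nL stock; the first replicate is given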
LANA-H2A inh = blocks KSHV LANA binding to histone H2A/H2B. AID 2629. cell-free LANA-H2A/H2B peptide, fluorescence polarization. 320,000 tested, 0.6% active. inhibition, % (test concentration not listed). Q9QR71; in the data active = inhibition mostly above about 10%, no sharp cut-off; inactive = mostly below about 6.7%;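 also: stock transfer was 7.5 nL into about 10 µL; 0% = median of vehicle wells and 100% = median of positive control wells; one replicate is shown; the record names a cut of 25% in any replicate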
Target sequence (Q9QR71 whole entry, looked up): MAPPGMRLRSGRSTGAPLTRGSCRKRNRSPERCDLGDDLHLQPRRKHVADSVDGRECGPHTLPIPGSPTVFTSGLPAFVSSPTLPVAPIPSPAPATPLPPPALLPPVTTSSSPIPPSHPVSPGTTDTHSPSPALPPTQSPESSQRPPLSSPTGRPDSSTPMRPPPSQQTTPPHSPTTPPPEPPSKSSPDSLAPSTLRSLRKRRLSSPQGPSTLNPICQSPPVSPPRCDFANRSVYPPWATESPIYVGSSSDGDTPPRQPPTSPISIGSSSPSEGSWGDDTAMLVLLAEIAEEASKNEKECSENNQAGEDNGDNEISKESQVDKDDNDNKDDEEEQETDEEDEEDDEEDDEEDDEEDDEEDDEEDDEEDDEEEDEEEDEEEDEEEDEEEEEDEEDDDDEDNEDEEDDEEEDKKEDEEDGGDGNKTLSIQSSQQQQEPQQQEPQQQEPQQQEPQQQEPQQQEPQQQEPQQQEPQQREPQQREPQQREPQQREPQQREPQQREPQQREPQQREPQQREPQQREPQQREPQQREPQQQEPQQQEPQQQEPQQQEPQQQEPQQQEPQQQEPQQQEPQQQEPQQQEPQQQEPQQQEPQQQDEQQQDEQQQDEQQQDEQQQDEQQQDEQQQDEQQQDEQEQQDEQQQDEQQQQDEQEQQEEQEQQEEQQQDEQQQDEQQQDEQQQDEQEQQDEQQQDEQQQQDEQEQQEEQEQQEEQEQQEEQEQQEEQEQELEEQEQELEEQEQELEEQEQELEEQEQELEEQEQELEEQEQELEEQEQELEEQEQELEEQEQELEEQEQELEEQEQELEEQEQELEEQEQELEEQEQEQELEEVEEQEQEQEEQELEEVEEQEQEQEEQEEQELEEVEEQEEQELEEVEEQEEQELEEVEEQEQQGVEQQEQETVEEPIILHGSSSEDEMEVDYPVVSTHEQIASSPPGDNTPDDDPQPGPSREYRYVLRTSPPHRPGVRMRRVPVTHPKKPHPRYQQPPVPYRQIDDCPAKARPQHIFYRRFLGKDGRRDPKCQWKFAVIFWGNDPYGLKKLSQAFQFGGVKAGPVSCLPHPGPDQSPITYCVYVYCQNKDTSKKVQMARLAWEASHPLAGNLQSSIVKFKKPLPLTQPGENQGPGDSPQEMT
Vif A3G = HIV-1 Vif–A3G interaction blockers – biochemical, TR-FRET, GST-Vif 1-94, biotin-A3G peptide, dose response retest, primary screen (AID 1117319). TR-FRET GST-Vif / biotin-A3G peptide binding; higher % means a stronger effect; test concentration not given here; strong numbers were not always called active. one-dose inhibition, %; IC50 in µM for titrated hits. 260,000 tested, 0.57% active;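 active = above the screen mean plus three standard deviations and confirmed in dose response; inconclusive = results disagree or hit not tested in dose response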;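 also: Vif residues 1-94 fused to GST binding biotinylated APOBEC3G peptide 110-148; 0% = full assay without inhibitor and 100% = GST in place of GST-Vif; retest series ran down from 100 µM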
Calb FLC = C. albicans growth modulation with fluconazole | C. albicans CaCi-2 (fluconazole-resistant clinical isolate) + fluconazole, Alamar Blue growth, 48 h | growth inhibition, % (no concentration beside the values) | 300,000 tested, 0.57% active | AID 1979;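 active = most replicates above 75%; inconclusive = exactly half above 75%; inactive = most below 75%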;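 also: all wells also contain fluconazole at 8 µg/ml as a sub-toxic cotreatment; 0% = median of DMSO wells and 100% = median of geldanamycin control wells; wells of about 8 µL received 7.5 nL stock; the first replicate is given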
Starred values were filed as active, the others as inactive; ? = inconclusive; . = not tested or not shown; & = joins results of further samples.

SMILES	HNF4A DNA FP	ALR H2O2 inh	B2AR ag	RanGTP-Impb inh	LANA-H2A inh	Vif A3G	Calb FLC
O=C(CSc1nnc(-c2cccs2)n1-c1ccccc1)c1ccc2c(c1)OCCO2	1.5	4.6	-1.5	1.0	-3.0	.	8.8
COc1ccc(C(=O)N/C(=C\c2cc(OC)c(OC)cc2[N+](=O)[O-])C(=O)NCC(=O)O)cc1	-4.3	-16.3	-5.2	0.1	-0.8	5.2%	-4.0
Cc1cc(Cl)ccc1OCc1nc(-c2ccncc2)no1	.	-7.0	.	?	-3.8	-6.9%	?
COC(=O)c1oc2ccc(Cl)cc2c1NC(C)=O	-2.5	.	10.4	1.2	1.3	1.3%	1.9
O=C(NC1=NCCS1)c1ccncc1	0.9	.	1.7	-4.0	-1.7	2.9%	-5.8
Cc1cc(-n2c(SCC(=O)Nc3ccc(Br)cc3)nc3n[nH]c(C)c3c2=N)ccc1Cl	0.4	-1.7	2.3	-0.3	-0.4	.	23.2
CCOc1ccc(-c2c(C)n([O-])c3c([n+]2=O)CCCCC3)cc1	2.1	.	-6.2	2.5	.	-8.5%	-1.7
Cc1cc(-c2ccc(C)c(S(=O)(=O)NCc3ccc(Br)cc3)c2)on1	-0.6	-5.0	-8.0	-0.8	-1.4	.	-1.9
CCCCOc1cccc(C(=O)NNC(=S)NC2CCCCC2)c1	-1.7	9.0	-11.1	0.5	9.6	1.2%	104.7*
CC1CCCCN1CCNC(=O)c1cc2c(=O)n(C)c3ccccc3c2n1C (configuration not stated)	-17.9	.	-2.6	7.7	-2.7	0.0%	6.4
COc1ccc(OC)c(S(=O)(=O)N2CCN(C(=O)NC3CCCCC3)CC2)c1	2.6	1.8	.	.	-4.4	.	.
Cn1c(C(O)c2ccccc2F)nc(Cl)c1Cl (configuration not stated)	2.1	-16.0	-7.8	0.4	1.1	-4.5%	-11.9
COc1ccc(Cc2nnc(NC(=O)c3ccccc3C)s2)cc1	8.9	-1.2	20.6	0.2	-5.8	.	-5.2
CCCCNC(=O)c1nn(-c2ccccc2OC)c(=O)c2ccccc12	-1.3	-3.3	-14.6	10.4	0.0	13.8%	-7.3
S=c1[nH]nc(-c2cccs2)n1/N=C/c1cccs1	0.2	8.2	5.2	-0.9	-1.7	3.2%	78.7*
Cc1cccc(C(=O)OC2CCN(C)CC2)c1	3.1	-6.7	-0.3	-0.2	1.4	15.5%	-4.5
CCC(CC)C(=O)Nc1ccc(S(=O)(=O)Nc2nccs2)cc1	3.0	-2.7	2.5	-0.5	-1.4	.	3.8
COc1ccc(N2C(=O)CC(S/C(N)=N/N=C(\C)c3cccs3)C2=O)cc1 (configuration not stated)	1.4	-0.9	20.5	-1.9	-4.4	4.3%	22.4
C/C(=C\C=C(C#N)C#N)c1cc(C#N)c(N)o1	172.4	.	3.9	-14.1	.	?	7.3
Cc1ccc(N2CC(=O)N(c3ccc(C)cc3)CC2=O)cc1	1.3	-0.3	1.4	-2.5	-0.1	?	-24.1

Taken from above.
COC(=O)c1oc2ccc(Cl)cc2c1NC(C)=O @ LANA-H2A inh: 1.3
CCCCNC(=O)c1nn(-c2ccccc2OC)c(=O)c2ccccc12 @ Calb FLC: -7.3
Cc1cc(Cl)ccc1OCc1nc(-c2ccncc2)no1 @ ALR H2O2 inh: -7.0

Random excerpt: two compounds from above
SMILES	HNF4A DNA FP	ALR H2O2 inh	B2AR ag	RanGTP-Impb inh	LANA-H2A inh	Vif A3G	Calb FLC
O=C(CSc1nnc(-c2cccs2)n1-c1ccccc1)c1ccc2c(c1)OCCO2	1.5	4.6	-1.5	1.0	-3.0	.	8.8
CCCCOc1cccc(C(=O)NNC(=S)NC2CCCCC2)c1	-1.7	9.0	-11.1	0.5	9.6	1.2%	104.7*

Further structures follow.
SMILES	HNF4A DNA FP	ALR H2O2 inh	B2AR ag	RanGTP-Impb inh	LANA-H2A inh	Vif A3G	Calb FLC
O=C(CS(=O)(=O)Cc1ccccc1)NCCc1ccc(F)cc1	-2.2	-0.8	-9.4	3.7	-4.0	.	3.4
Cc1c(OC(C)C(=O)NCc2ccccn2)ccc2c3c(c(=O)oc12)CCC3 (configuration not stated)	-1.5	5.7	11.3	-1.0	4.1	.	5.4
COc1ccc(Cc2nnc(SCC(=O)NC3(C#N)CCCCC3)n2N)cc1	1.1	-1.4	-7.8	4.2	-0.6	-1.2%	-2.3
CCO[C@@H]1OC(C(=O)N2CCN(Cc3ccccc3)CC2)=C[C@H](C2CC2)[C@H]1CCCO	-2.4	-1.9	-1.3	0.3	-2.0	-12.8%	4.7
CCN1CCCC1CNCC(=O)Nc1ccc(OC(F)(F)F)cc1 (configuration not stated)	-3.2	-4.5	-7.8	3.7	-2.6	?	4.4
COc1ccc(S(=O)(=O)N2CC3C4C=CC(C4)C3C2)cc1 (configuration not stated)	-1.0	3.3	-3.2	7.5	-6.4	0.1%	-1.9
OC1COC(OCC2OC(OCc3ccccc3)C(O)C(O)C2O)C(O)C1O (configuration not stated)	6.1	19.7	-9.2	5.4	4.7	?	0.6
Cc1c(Cl)cccc1NC(=S)NC(=O)c1cncc(Br)c1	3.8	25.2	4.7	8.4	8.1	.	-2.5
O=C1Nc2ccc(Br)cc2/C1=N\N=C\C1=C(N2CCOCC2)C(=C/c2ccccc2)/CC1	1.0	.	22.7	.	.	5.5%	.
COc1ccc([N+](=O)[O-])cc1NC(=O)COC(=O)c1ccc(O)cc1	-1.8	-4.0	3.1	4.1	8.4	-3.1%	-3.4
Cc1ccccc1CN1[C@@H]2c3ccccc3C[C@@H]2OCCS1(=O)=O	-1.3	-13.6	-18.9	-0.1	-2.3	.	14.1
Oc1c(Br)cc(/C=N/NC(=S)NCC2CCCO2)cc1Br (configuration not stated)	1.1	96.2*	6.8	-0.5	-4.8	2.4%	-3.4
CS(=O)(=O)c1ccc2nc(NC(=O)c3ccc(Cl)nc3)sc2c1	5.9	-0.9	5.0	.	0.7	.	23.2
Cc1cnc([N+](=O)[O-])n1CCOC(=O)NC(=O)c1c(F)cccc1F	0.0	13.6	-5.1	1.1	-3.8	10.6%	-2.8
COCCn1c(C)cc(C(=O)COC(=O)CNC(=O)c2ccco2)c1C	-3.5	0.5	1.1	.	2.3	-8.9%	.
Cc1ccc(NC2CCCN(C(=O)c3cccc(-c4ncc[nH]4)c3)C2)cc1C (configuration not stated)	4.5	97.1*	-11.4	-1.0	-2.9	.	-0.2
O=C(Nc1cccc(Cl)c1)c1ccc(Cn2cc(Cl)cn2)cc1	0.3	.	5.7	-3.8	-0.8	.	0.8
N/C(Cc1ccc(Cl)cc1Cl)=N\OC(=O)c1ccccc1F	-1.6	.	-8.5	2.9	15.2	32.3%	-76.6
COc1ccc(-c2[nH]ncc2CN2CCC(OCc3ccccn3)CC2)c(F)c1	9.5	-2.4	-13.3	-2.9	1.8	26.9%	2.2
CC1(C)CC(=O)N(c2ccc(Cl)c(Cl)c2)C(=O)C1	-2.0	-6.5	-0.8	0.4	-0.9	-3.6%	-11.4
COc1ccc(Cl)cc1NC(=O)Cn1c(=O)n2nc(C)nc2c2ccccc21	-2.0	72.9	-4.0	?	-2.1	30.8%	20.1
N#Cc1c(-c2ccc(F)cc2)cc(-c2cccnc2)nc1N	4.2	-12.1	6.1	0.5	-2.8	0.3%	0.4
Cc1cc[n+]2cc(-c3cccc([N+](=O)[O-])c3)c(-c3cccc([N+](=O)[O-])c3)cc2c1	4.3	-13.5	-15.1	3.4	1.2	?	-18.0
CC1=C[C@@H](C)[C@@H](c2ccccc2)OC1=O	-2.4	-6.4	-3.7	2.4	-3.7	.	6.5
COc1ccc(-c2cc3c(=O)n(CC(=O)N4CCCCC4)ncn3n2)cc1	0.2	-3.9	1.2	?	7.9	.	-14.8
O=C(COc1ccccc1F)NCC(c1ccco1)N1CCCC1 (configuration not stated)	-0.9	-4.1	7.4	4.5	-5.5	?	-12.7
Cc1[nH]c2ccc(F)cc2c1CCN(Cc1cccnc1)C(=S)Nc1ccc(F)cc1	-0.1	3.3	-5.4	-3.0	-3.9	-1.1%	0.8
COC(=O)C1=C(O)/C(=C\c2ccc(CNC(=O)C(=O)Nc3ccc(C)cc3)o2)N=C1C	0.4	-1.6	56.4*	-1.2	3.9	24.1µM*	4.9
O=C1CCc2cc(Br)ccc2O1	-0.6	.	4.0	.	.	6.8%	.
Cc1ccc(S(=O)(=O)N2CC(O)CC2C(=O)Nc2ccc3c(c2)CCC3)cc1 (configuration not stated)	1.9	-12.3	3.7	0.6	0.6	-3.0%	-32.9
Cc1nc(C(C)N(C)Cc2nc(-c3ccc4c(c3)OCO4)no2)c(C)s1 (configuration not stated)	0.3	-4.1	-9.0	-1.7	-12.3	.	-0.3
CC(=O)Oc1cccc(N2C(=O)c3ccc(C(=O)Nc4cccnc4)cc3C2=O)c1	1.4	5.0	-3.7	0.8	-7.2	0.1%	5.7
COc1ccccc1C(=O)N1CCC(N2CCN(c3ccccc3OC)CC2)CC1	0.3	1.7	2.9	-1.5	-3.1	2.5%	-2.1
COc1ccccc1NC(=O)CSc1nnnn1-c1ccc(C)cc1	-3.5	.	-2.8	1.0	7.8	7.3%	7.0
O=C(COC(=O)c1cccs1)Nc1ccccc1Cl	-0.1	2.5	-4.2	0.2	-1.6	.	7.5
O=C(/C=C\c1cn(-c2ccccc2)nc1-c1ccccc1)Nc1nccs1	-3.3	-2.5	1.6	0.0	-2.2	-16.8%	4.0
O=C(NCc1ccc2c(c1)OCO2)C1CCN(c2nccc(C(F)(F)F)n2)CC1	-0.5	-2.4	-11.9	0.6	-3.9	-7.8%	0.1
Cc1ccc(/C=C2\C(=O)Nc3ccccc32)o1	-3.1	-5.8	2.0	.	-1.5	?	.
CCc1nc2c(cnn2-c2ccc(Cl)cc2)c(=O)n1-c1ccc(OC)cc1	2.5	-3.0	5.7	4.6	-2.3	2.7%&-3.9%	-2.3
Cc1cccnc1NC(=O)Nc1ccccc1	0.3	1.4	-4.7	-0.5	-1.0	16.6%	2.8
Cc1nc([N+](=O)[O-])cn1CC(=O)Nc1ccc([N+](=O)[O-])cc1	3.1	-1.1	2.9	1.1	0.5	.	-1.2
COc1ccc(OC)c(NC(=O)C(Sc2ccccc2)c2ccccc2)c1 (configuration not stated)	0.6	.	6.6	3.3	-0.3	-2.5%	-10.7
CCCCCCCn1ccc(=N)cc1	2.2	-3.8	1.7	-0.9	1.9	8.5%	-2.8
CCOc1ccc(NS(=O)(=O)c2ccc(NC(C)=O)c(OC)c2)cc1	0.2	-2.4	-1.7	5.1	7.3	3.4%	3.8
Cc1cc(N2CCN(c3ccccc3)CC2)nc(-c2ccccc2O)n1	0.7	-2.4	6.1	-9.6	0.0	1.1%	-6.8
Cc1[nH]c2ccccc2c1C(=O)C(=O)N1CCOCC1	-1.4	-0.8	-3.1	1.9	1.2	4.8%	-3.7
CN(C(=O)CCc1nc2ccccc2c(=O)[nH]1)C1CCS(=O)(=O)C1 (configuration not stated)	-0.2	-4.4	-0.7	.	1.4	-15.8%	.
CCOC(=O)c1cnn(-c2ncnc3c2cnn3C)c1N	1.9	-3.7	-3.8	8.3	-2.2	-1.1%	2.1
COc1cc(/C=C2\SC(=O)N(c3ccccc3Cl)C2=O)cc([N+](=O)[O-])c1O	-3.3	.	13.9	3.4	.	5.6%	?
CC(=O)Nc1ccc(NC(=O)C2CCCN(c3nnc(-n4cccc4)s3)C2)cc1 (configuration not stated)	1.6	-12.3	-15.3	-0.1	4.2	-3.5%	6.4
CCn1c(SC(C)C(=O)OC)nnc1-c1c[nH]c2ccccc12 (configuration not stated)	-1.4	-3.8	19.2	5.4	-1.1	4.2%	-6.4
O=C(O)CC1S/C(=N\N=C/c2ccccc2)N(c2ccc(O)cc2)C1=O (configuration not stated)	2.0	5.4	-4.8	-2.2	13.4	?	-3.0
O=C(CNC(=O)C1CCCCC1)NNC(=O)c1ccccc1Br	2.1	-1.8	5.4	4.8	2.5	.	18.2
